# Mtb H37Rv: M. tuberculosis H37Rv growth inhibitors, H37Rv strain (AID 1626) | M. tuberculosis H37Rv growth inhibition; higher % means a stronger effect | one-dose inhibition, % at 10 µM; IC50 in µM for titrated hits | 220,000 tested, 0.95% active;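 active means confirmed in a dose series; inconclusive means inhibition above 80% but not taken into the dose series; inactive means below 80% or under 30% at every dose of the series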;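 further: bacteria incubated seven days before Alamar blue readout; 0% = bacteria only wells and 100% = bacteria with antibiotic wells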
# RecA splice inh: Mtb RecA intein splicing inhibition; cell-free RecA intein splicing, fluorescence; inhibition, %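 (about 9 µM by stock and volumes)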; 290,000 tested, 0.75% active; in the data active means inhibition above about 30%; inconclusive means no clear call, values can overlap the other calls;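 further: 0% = vehicle wells and 100% = reference inhibitor control wells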
# Target sequence (P9WHJ3 whole entry, looked up, canonical isoform): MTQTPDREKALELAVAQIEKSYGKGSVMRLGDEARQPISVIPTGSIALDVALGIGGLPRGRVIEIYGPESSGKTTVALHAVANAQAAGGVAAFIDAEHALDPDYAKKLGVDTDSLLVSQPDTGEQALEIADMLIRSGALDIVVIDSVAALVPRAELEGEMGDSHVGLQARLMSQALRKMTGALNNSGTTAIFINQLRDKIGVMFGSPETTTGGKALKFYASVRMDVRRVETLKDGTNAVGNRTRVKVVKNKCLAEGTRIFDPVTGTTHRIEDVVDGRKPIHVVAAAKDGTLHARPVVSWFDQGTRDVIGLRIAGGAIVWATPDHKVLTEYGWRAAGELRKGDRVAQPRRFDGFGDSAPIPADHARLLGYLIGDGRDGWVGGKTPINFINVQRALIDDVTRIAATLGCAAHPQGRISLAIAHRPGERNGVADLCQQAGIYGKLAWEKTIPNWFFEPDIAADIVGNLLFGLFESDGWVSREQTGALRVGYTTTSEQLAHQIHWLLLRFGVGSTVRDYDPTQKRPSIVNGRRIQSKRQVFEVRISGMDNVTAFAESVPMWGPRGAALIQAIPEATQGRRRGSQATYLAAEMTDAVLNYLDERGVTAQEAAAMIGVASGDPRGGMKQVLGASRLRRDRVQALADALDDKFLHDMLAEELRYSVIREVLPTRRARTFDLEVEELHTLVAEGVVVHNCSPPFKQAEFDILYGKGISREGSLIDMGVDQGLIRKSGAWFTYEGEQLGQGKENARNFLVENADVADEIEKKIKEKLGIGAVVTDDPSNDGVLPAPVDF
# Mtb betalactam: beta-lactam sensitization of Mtb H37Rv; 330,000 tested, 0.27% active; inhibition, % at 25 µM; M. tuberculosis H37Rv growth with meropenem, percent inhibition; hits of this screen are not shown here;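 active means about 74% or more and at least 40 points above the plate without the antibiotic, then above 30% in a dose series; inconclusive means first-round hits that could not be retested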;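 further: growth measured after seven days incubation then overnight dye step; 0% = bacteria only wells and 100% = bacteria with antibiotic; twin plates without the antibiotic show which effects depend on it; some results filed as inactive read as strong as hits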
# Arbovirus anti: antivirals against arbovirus infection. arbovirus infection cell-based antiviral screen. inhibition, % at 10 µM. 200,000 tested, 0.37% active;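 active means inhibition from about 30%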;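 further: bluetongue infection of BSR cells; cell survival read as ATP light after 72 h; 0% = infected wells without compound and 100% = uninfected wells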
# YopH inh: YopH (Yersinia) phosphatase inhibition. fluorescence Ex485/Em525. AID 898. 140,000 tested, 0.16% active. inhibition, %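 (about 10 µM by stock and volumes)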;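 active means inhibition of 50% or more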;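 further: controls were vehicle for no effect and minimum signal wells for full effect; inactives centre near -20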
# Arbovirus anti repeat: second read-out of Arbovirus anti, no call of its own (marks repeat the call); inhibition, %; measured here: 10K subset replicate screen; many hits read low in the repeat;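 first of two repeat runs on a subset; 0% = infected and 100% = uninfected wells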
# * = called active by the depositor; ? = inconclusive; / = no result given.
# Sample of the layout (3 entries):
SMILES,Mtb H37Rv,RecA splice inh,Mtb betalactam,Arbovirus anti,YopH inh,others
N#C/C(=C\c1ccc(-c2ccccc2[N+](=O)[O-])o1)C(N)=O,-10%,2.1,-8,/,/,
Cc1c(C(=O)/C=C/c2cccs2)oc2ccc(F)cc12,9%,1.5,53,8,-14,
Cc1ccc(-c2noc(CSc3nnc(Cc4ccccc4)n3-c3ccc(Cl)cc3)n2)cc1,7%,7.2,-8,-4,-5,

# This part in full, previewed entries included:
SMILES,Mtb H37Rv,RecA splice inh,Mtb betalactam,Arbovirus anti,YopH inh,others
N#C/C(=C\c1ccc(-c2ccccc2[N+](=O)[O-])o1)C(N)=O,-10%,2.1,-8,/,/,
Cc1c(C(=O)/C=C/c2cccs2)oc2ccc(F)cc12,9%,1.5,53,8,-14,
Cc1ccc(-c2noc(CSc3nnc(Cc4ccccc4)n3-c3ccc(Cl)cc3)n2)cc1,7%,7.2,-8,-4,-5,
CCc1cc2c(cc3c(=O)n(CC(=O)NCCCN(CC)CC)nc(CC)n32)s1,0%,-0.2,4,7,0,
COC(=O)CNC(=O)CSc1nc2sccc2c(=O)n1-c1ccccc1,/,0.7,-6,/,/,
CCOC(=O)N1CCN(Cc2nc3cc(NC(=O)c4ccco4)ccc3n2CC)CC1,/,-0.8,1,/,/,
O=C(c1ccco1)c1cn(CC(=O)N2CCCC2)c2ccccc12,1%,1.9,-4,-1,/,
CCOC(=O)c1c(CN2CCN(c3ccccc3)CC2)oc2cc(Br)c(O)cc12,/,8.6,-4,/,/,
O=C(OC1CCN(c2ncc(C(F)(F)F)cc2Cl)CC1)c1ccccc1,-5%,18,6,0,-43,
Cc1ccc(C(=O)N2CCN(S(=O)(=O)c3cc(Br)ccc3Br)CC2)o1,/,0.3,2,/,/,
CCOC(=O)c1c(/N=C/N(C)C)sc(C(=O)OC)c1C,-6%,-1.9,10,-4,-27,Arbovirus anti repeat=-3
CC1CN(C(NC(=O)c2ccccc2)C(Cl)(Cl)Cl)CC(C)O1 (stereo not given),-3%,/,/,7,/,
CC(=O)c1ccc(NC(=O)c2cc(C)nc3ccccc23)cc1,/,-2.1,-1,/,/,
O=C1CN(C(=O)CN2CCCCC2)C(c2ccccc2)c2cc(Br)ccc2N1 (stereo not given),-3%,2.6,-3,14,-22,
COc1ccccc1-c1nnc(SCC(=O)NC2CCCCC2)n1C,/,-2.0,-4,/,/,
CCCn1c(/C=C/c2ccco2)nc2ccccc21,-1%,4.9,-5,16,-22,
COc1cc2ncnc(NCc3ccc(C)cc3)c2cc1OC,9%,5.1,0,13,-33,
COc1cccc(NC(=O)c2ccc(S(=O)(=O)N(C)C)cc2)c1,2%,-1.8,-4,2,/,
Cc1ccc(C(C(=O)NC2CCCCC2)N(C(=O)c2csnn2)C2CC2)cc1 (stereo not given),/,-2.5,3,/,/,
C#CCOCCOCCOCCNc1nc(N2CCN(C(=O)[C@H](Cc3ccc(O)cc3)n3cc([C@@H](N)C(C)CC)nn3)CC2)nc(N2CCN(C(=O)[C@H](CCCCN)n3cc([C@@H](N)CO)nn3)CC2)n1 (stereo not given in full),1%,-0.6,-6,0,/,
COc1ccc(C)cc1NC(=O)C(NC(=O)c1cc(OC)c(OC)c(OC)c1)C(C)C (stereo not given),7%,1.1,6,15,/,
CCOC(=O)c1ccc(NC(=O)CC2C(=O)N(c3cccc(OC)c3)C(=O)N2CCOC)cc1 (stereo not given),6%,-0.7,2,-1,10,
Cn1c2ccc(F)cc2c2ncn(CC3CCCO3)c(=O)c21 (stereo not given),-14%,-1.0,0,/,/,
O=C(NCCCN1CCOCC1)c1ccc(N2CCOCC2)c([N+](=O)[O-])c1,/,1.9,?,/,/,
Cc1nnsc1C(=O)Nc1cccc(Cl)c1C,2%,-0.6,-10,-1,/,

# The list continues:
SMILES,Mtb H37Rv,RecA splice inh,Mtb betalactam,Arbovirus anti,YopH inh,others
Cc1cc(C)nc(SCc2ccc(C(=O)N/N=C/c3ccccn3)cc2)n1,11%,1.1,54,6,/,
CCc1ccc(-c2cc(C(F)(F)F)n3nc(C(=O)Nc4c(C)nn(Cc5ccccc5C)c4C)cc3n2)s1,3%,-46,?,1,-4,
CN(C(=O)c1ccc(Cl)nc1)C1(c2ccccc2Cl)CCCCC1=O (stereo not given),-6%,1.2,5,20,/,
COc1ccccc1NS(=O)(=O)c1ccc(NC(=O)Cc2cccs2)cc1,-6%,1.7,1,12,-20,
O=C(NCCNc1ccc([N+](=O)[O-])cc1)c1ccc(Cl)cc1,8%,2.5,-6,-5,/,
CCCC(=O)NC(=S)Nc1ccccc1C(=O)OC,75%,-2.8,-8,6,-36,
CC1(C)CN(O)CCN1O,-3%,-1.8,-3,-7,-17,
S=C(NCc1ccccc1)NCc1ccccc1Cl,/,3.4,-1,/,/,
CC(C)(CO)CNC(=O)CCc1nnc(-c2ccc(-c3ccccc3)cc2)o1,/,3.6,1,/,/,
CC(CCN1CCOCC1)c1ccccc1 (stereo not given),/,1.1,-4,/,/,
S=C(Nc1ccccn1)NC1CCCCC1,6%,2.1,-2,/,/,
O=C(CSc1nnc(CNC(=O)c2c(F)cccc2F)o1)NCC1CCCO1 (stereo not given),/,-3.3,-8,/,/,
Cc1nc2ccc(S(=O)(=O)NC(C(=O)N3CCCCCC3)C(C)C)cc2s1 (stereo not given),-3%,2.0,7,4,-57,Arbovirus anti repeat=-2
O=C(Nc1nccs1)c1ccc(NC(=O)C2CC=CCC2C(=O)O)cc1 (stereo not given),-6%,-2.9,1,3,/,
C=C(C)CSc1nncn1/N=C/c1ccc(OC)cc1,8%,0.6,11,-2,-39,
CCCC(=O)NCCc1nc2ccccc2n1C,-6%,-0.5,?,3,-49,
CS/C(=C\[N+](=O)[O-])Nc1ccccc1,-8%,17,77,-5,-18,
Cc1cc(C)nc(SCC(=O)Nc2ccc(N3CCOCC3)cc2)n1,-10%,-1.4,-2,4,-10,
CCOc1ccc(CNC(=O)CCS(=O)(=O)c2ccc3c(c2)NC(=O)CO3)cc1OC,/,-2.0,-9,/,/,
O=C(CNC(=O)c1ccc(Cl)cc1)N/N=C/c1cccnc1,-14%,0.2,-2,/,/,
CCn1c(C)c(C)c2cc(C(=O)NC3CCCCCC3)ccc21,/,0.8,2,/,/,
COc1ccc(S(=O)(=O)Nc2ccc(C)cc2)cc1N(C)S(=O)(=O)c1ccc(Cl)cc1,2%,15,5,-2,-40,
Cc1ccc[n+](CC(=O)c2ccc(NC(=O)c3ccccc3)cc2)c1,3%,-4.9,-2,0,/,
O=C(O)c1ccc(NS(=O)(=O)c2ccc(N3C(=O)CCC3=O)cc2)cc1,/,1.8,-3,/,/,
CSc1c(CC(=O)Nc2ccc(F)cc2)n(Cc2ccccc2)c2ccccc12,6%,-1.6,0,-4,-17,

# Further compounds follow:
SMILES,Mtb H37Rv,RecA splice inh,Mtb betalactam,Arbovirus anti,YopH inh,others
Cc1ccccc1OCc1nc(-c2ccc(Br)o2)no1,10%,12,4,-30,-16,
O=C(Cn1c(=O)oc2cc(S(=O)(=O)N3CCCC3)ccc21)N1CCN(c2ccccn2)CC1,5%,0.5,-1,-5,-23,Arbovirus anti repeat=-3
COC(=O)c1cc(S(=O)(=O)NCC2CCN(CCc3ccc(OC)cc3)CC2)cn1C,/,-0.3,-1,/,/,
NC(=O)COc1ccccc1/C=C1/SC(=O)N(CC(=O)N2CCc3ccccc3C2)C1=O,/,6.0,64,5,-22,
Clc1ccc(SCCOCCN2CCCCCC2)cc1,/,2.6,7,/,/,
Cn1nccc1NS(=O)(=O)c1ccc(C(C)(C)C)cc1,2%,/,-9,/,/,
CCOc1ccc(NC(=O)C2CCCN2C(=O)OCc2ccccc2)cc1 (stereo not given),1%,1.5,2,7,/,
NC(=O)C1CCN(S(=O)(=O)c2ccccc2[N+](=O)[O-])CC1,/,-5.4,0,/,/,
O=C(COc1ccc(Br)cc1CO)Nc1ccccc1,-4%,1.6,10,2,-7,
Cc1nc2n(n1)CC(O)CS2 (stereo not given),0%,-6.5,0,-2,-18,
Cc1ccc(C(=O)O/N=C(\N)c2ccc(Br)cc2)cc1,/,1.0,58,-4,2,
O=C(CCCOc1ccc(Cl)cc1Cl)n1nnc2ccccc21,6%,2.3,-3,0,9,
CC(=O)OCc1cc(-c2nn(C)c(=O)c3ccccc23)ccc1C,5%,0.4,4,-2,/,
CN(C)CC(=O)Nc1ccc2cn[nH]c2c1,-5%,-1.3,-8,4,/,
C=CCn1c(NC(=O)c2ccc(C)cc2)nc2ccccc21,/,-0.6,85,/,/,
C[C@@H]1C=C(C(=O)NCc2ccccc2)O[C@H](OCc2ccc(CO)cc2)C1,-12%,1.6,-7,-4,/,
Nc1ccc2c(c1)N1CCN=C1S2,-1%,-2.9,-1,-8,-3,
COc1ccccc1OCCOCCOc1ccc(C)cc1[N+](=O)[O-],4%,0.8,4,0,1,
OCCNCCOc1ccccc1-c1ccccc1,2%,0.6,0,8,-7,
COCCn1c(SCC(=O)Nc2ccc(S(=O)(=O)N3CCOCC3)cc2)nc2ccccc21,-15%,/,4,7,-47,
Cn1ccnc1Sc1ccc(/C=N/NC(=O)c2ccccc2O)cc1[N+](=O)[O-],-5%,-0.4,5,-2,-27,
O=C(c1ccc2c(c1)OCCO2)N1CCCC(CNS(=O)(=O)c2cccs2)C1 (stereo not given),4%,6.4,-5,2,/,
Cc1ccc(-n2nnnc2SCC(=O)NC(=O)Nc2ccc3c(c2)OCCO3)cc1,1%,-0.2,3,15,-17,
O=C(C1CCCO1)N1CCN(c2ncccn2)CC1 (stereo not given),-5%,-1.1,-12,6,41,
CCCc1cc(=O)oc2c3c(cc(OCC(=O)NCc4ccccn4)c12)OC(C)(C)CC3,/,3.4,-6,/,/,

# The listing continues:
SMILES,Mtb H37Rv,RecA splice inh,Mtb betalactam,Arbovirus anti,YopH inh,others
COc1ccc(C(=O)Nc2ccccn2)cc1S(=O)(=O)N1CCOCC1,/,0.0,-19,/,/,
CC(C)c1nc(SCC(=O)Nc2ccc(N(C)C)cc2)c2ccccc2n1,-3%,2.3,-5,-17,/,
O=C(CN1CCOCC1)N/N=C/c1ccc(-c2ccc(C(=O)O)cc2)o1,3%,-1.9,4,/,/,
O=Cc1ccc(C(=O)OCC(=O)NCCC2=CCCCC2)cc1,/,0.5,0,/,/,
O=C(CSc1cccc[n+]1[O-])C12CC3CC(CC(C3)C1)C2,1%,4.0,100,9,/,
Cc1ccc(S(=O)(=O)N2CCN(C(=O)c3nn(C(C)C)c(=O)c4ccccc34)CC2)cc1C,2%,-6.5,-12,-1,-1,
Cc1oc2c(cc(NS(=O)(=O)c3ccc(C(C)C)cc3)c3ccccc32)c1C(=O)O,/,12,0,/,/,
O=C(NS(=O)(=O)c1ccc(Cl)s1)c1ccccc1,/,-1.6,-3,/,/,
CN(C(=O)COC(=O)c1ccc(=O)n(Cc2ccccc2)n1)C1CCS(=O)(=O)C1 (stereo not given),/,0.9,-7,/,/,
Cn1c(SCC(=O)NNC(=O)Nc2ccccc2)nnc1-c1ccccc1,-3%,0.7,-4,/,/,
COc1ccc(CCNC(=O)c2cc(-c3ccccc3)c(N3CCOCC3)s2)cc1OC,/,10,10,/,/,
Cc1cccc(CN2CCC(n3nccc3NC(=O)c3ccccc3C)CC2)n1,/,1.6,?,/,/,
O=C(NC(=S)Nc1ccc(Cc2ccncc2)cc1)c1ccc(F)cc1,?,1.1,5,-1,/,
O=S(=O)(c1cccs1)N1CCN(c2ccc(O)cc2)CC1,-12%,-0.9,-5,/,/,
O=C(NCc1ccc2c(c1)OCO2)c1ccc(CS(=O)Cc2ccc(Cl)cc2)o1 (stereo not given),/,-2.9,3,/,/,
COC(=O)c1ccc(C2C(C(C)=O)=C(C)Nc3ncnn32)cc1 (stereo not given),1%,-1.8,6,7,-57,Arbovirus anti repeat=2

# Among those listed so far, these have bromine.
SMILES,Mtb H37Rv,RecA splice inh,Mtb betalactam,Arbovirus anti,YopH inh,others
CCOC(=O)c1c(CN2CCN(c3ccccc3)CC2)oc2cc(Br)c(O)cc12,/,8.6,-4,/,/,
Cc1ccc(C(=O)N2CCN(S(=O)(=O)c3cc(Br)ccc3Br)CC2)o1,/,0.3,2,/,/,
O=C1CN(C(=O)CN2CCCCC2)C(c2ccccc2)c2cc(Br)ccc2N1 (stereo not given),-3%,2.6,-3,14,-22,
Cc1ccccc1OCc1nc(-c2ccc(Br)o2)no1,10%,12,4,-30,-16,
O=C(COc1ccc(Br)cc1CO)Nc1ccccc1,-4%,1.6,10,2,-7,
Cc1ccc(C(=O)O/N=C(\N)c2ccc(Br)cc2)cc1,/,1.0,58,-4,2,

# Screening results as filed in PubChem BioAssay.

# A portion of the library. The share of hits here may be higher or lower than overall.
